Screening data from PubChem.
B2AR ag: activates human beta-2 adrenergic receptor causing internalization; Am2.2-beta2AR cells, FAP receptor internalization, flow cytometry; reference of the scale not given here; P07550; response, % (concentration not given with the values); hit rate 0.43% among 340,000; AID 504454;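 active means response above a set limit, near 3 SD of response in nonfluorescent compounds, cut at about 42% in these data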;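 further: stock transfer was 100 nL into about 11 µL; a reference agonist was the positive control; negative values mostly stem from fluorescent compounds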
Target sequence (P07550 whole entry, looked up): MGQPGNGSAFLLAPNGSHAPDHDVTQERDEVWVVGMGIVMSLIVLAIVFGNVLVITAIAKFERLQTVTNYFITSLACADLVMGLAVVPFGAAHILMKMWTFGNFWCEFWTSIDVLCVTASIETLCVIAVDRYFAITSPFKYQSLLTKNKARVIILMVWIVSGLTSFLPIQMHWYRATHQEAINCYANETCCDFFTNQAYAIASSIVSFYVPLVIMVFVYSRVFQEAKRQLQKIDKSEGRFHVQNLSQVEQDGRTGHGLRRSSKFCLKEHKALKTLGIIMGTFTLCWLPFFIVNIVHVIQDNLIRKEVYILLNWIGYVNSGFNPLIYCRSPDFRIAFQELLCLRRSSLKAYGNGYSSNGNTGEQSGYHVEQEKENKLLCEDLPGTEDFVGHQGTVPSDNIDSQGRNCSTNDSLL
ALR H2O2 inh: human ALR oxidase inhibition via reduced H2O2; P55789; AID 485317; purified ALR, DTT oxidation, H2O2 HRP-luminol luminescence; inhibition, % (concentration not given with the values); hit rate 3.8% among 290,000;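 active means mean and each replicate at 75% or more; inconclusive means only one of the two met; inactive means neither met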;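 further: stock transfer was 7.5 nL into about 7.5 µL; 0% = neutral wells and 100% = wells with inactivated enzyme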
Target sequence (P55789 whole entry, looked up): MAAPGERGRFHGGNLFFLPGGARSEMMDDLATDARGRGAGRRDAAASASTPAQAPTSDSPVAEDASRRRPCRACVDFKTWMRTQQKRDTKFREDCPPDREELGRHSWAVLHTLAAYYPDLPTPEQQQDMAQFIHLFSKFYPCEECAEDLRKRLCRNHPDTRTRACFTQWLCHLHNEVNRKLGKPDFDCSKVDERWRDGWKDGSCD
Calb FLC: affects C. albicans growth with fluconazole | hit rate 0.57% among 300,000 | AID 1979 | growth inhibition, % (test concentration not listed) | C. albicans CaCi-2 (fluconazole-resistant clinical isolate) + fluconazole, Alamar Blue growth, 48 h;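 active means most replicates above 75%; inconclusive means exactly half above 75%; inactive means most below 75%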;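 further: all wells also contain fluconazole at 8 µg/ml as a sub-toxic cotreatment; 0% = median of DMSO wells and 100% = median of geldanamycin control wells; wells of about 8 µL received 7.5 nL stock; the first replicate is given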
Vif TR-FRET: inhibitors of Vif binding to APOBEC3G peptide, primary screen, biochemical, TR-FRET, GST-Vif 1-94, biotin-A3G peptide, dose response retest (AID 1117319); TR-FRET GST-Vif / biotin-A3G peptide binding; higher % means a stronger effect; test concentration not given here; strong numbers were not always called active; inhibition, %, or IC50 in µM where a hit was titrated; hit rate 0.57% among 260,000;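 active means above the screen mean plus three standard deviations and confirmed in dose response; inconclusive means results disagree or hit not tested in dose response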;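 further: Vif residues 1-94 fused to GST binding biotinylated APOBEC3G peptide 110-148; 0% = full assay without inhibitor and 100% = GST in place of GST-Vif; retest series ran down from 100 µM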
HNF4A DNA FP: change in binding of human HNF4 alpha to DNA; P41235; HNF4a-FITC DNA binding, fluorescence polarization, 1 h; activity change, % at 10 µM; hit rate 0.3% among 360,000; AID 1224865; in the data active means activity change above about 30%, passing the limit was not always enough;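 further: controls were the assay level and a saturating level of protein; the project sought stronger binding though the title names inhibitors; some compounds called inactive have numbers as strong as hits; positive values seem to mean higher polarization but the record does not say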
Target sequence (P41235 whole entry, looked up): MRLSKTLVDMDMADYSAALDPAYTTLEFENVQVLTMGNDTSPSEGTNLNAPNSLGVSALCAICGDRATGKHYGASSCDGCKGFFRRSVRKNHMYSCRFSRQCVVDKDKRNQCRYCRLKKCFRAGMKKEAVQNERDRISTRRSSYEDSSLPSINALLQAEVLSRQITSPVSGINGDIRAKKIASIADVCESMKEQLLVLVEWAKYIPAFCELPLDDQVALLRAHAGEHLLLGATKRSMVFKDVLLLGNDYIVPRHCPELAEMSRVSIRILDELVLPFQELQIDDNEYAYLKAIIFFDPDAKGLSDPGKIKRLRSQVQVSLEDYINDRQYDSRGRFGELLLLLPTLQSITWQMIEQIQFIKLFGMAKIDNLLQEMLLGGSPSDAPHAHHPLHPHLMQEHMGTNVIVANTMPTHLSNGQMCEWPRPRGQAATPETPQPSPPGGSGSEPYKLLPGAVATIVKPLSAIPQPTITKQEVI
RanGTP-Impb inh: inhibitors of RanGTP-importin-beta interaction, primary screen, biochemical, FRET, CFP-Ran, YFP-importin-beta, homogeneous | cell-free CFP-Ran/YFP-importin-beta FRET ratio | inhibition, % (no concentration beside the values) | hit rate 1.1% among 300,000 | AID 2216;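 active means most replicates above 15%; inconclusive means exactly half above 15%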;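 further: 0% = DMSO wells and 100% = Ran loaded with GDP instead of GTP; wells of about 40 µL received 100 nL stock; the first replicate is given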
LANA-H2A inh: blocks KSHV LANA binding to histone H2A/H2B | Q9QR71 | cell-free LANA-H2A/H2B peptide, fluorescence polarization | inhibition, % (no concentration beside the values) | hit rate 0.6% among 320,000; in the data active means inhibition mostly above about 10%, no sharp cut-off; inactive means mostly below about 6.7%;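 further: stock transfer was 7.5 nL into about 10 µL; 0% = median of vehicle wells and 100% = median of positive control wells; one replicate is shown; the record names a cut of 25% in any replicate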
* hit, by the source's call; ? = inconclusive; . = not tested or not shown; & = joins results of further samples.

SMILES	B2AR ag	ALR H2O2 inh	Calb FLC	Vif TR-FRET	HNF4A DNA FP	RanGTP-Impb inh	LANA-H2A inh
COc1cc(OC)cc(C(=O)NCC(=O)OCc2nc3ccccc3s2)c1	16	13	1	5%	4.8	2.8	-3.9
COc1ccc(C(=O)NCCc2c[nH]c3ccccc23)cc1S(=O)(=O)N1CCOCC1	-6	3	13	14%&-5%	1.0	.	-0.5
CSc1nsc(SC)c1NC(=O)Nc1ccccc1C	5	.	-12	2%	-1.8	4.5	-4.8
Cc1ccsc1/C=N/NC(=O)c1cccc(S(=O)(=O)Nc2ccccc2Cl)c1	2	3	25	21%	-3.5	2.3	-1.4
COc1ccc(NC(=O)CCC(=O)N/N=C/c2ccc([N+](=O)[O-])s2)cc1	4	-23	-4	24%	2.6	-2.7	-3.6
O=C(NCc1cccnc1)C1CCN(c2ccc(S(=O)(=O)N3CCOCC3)cc2Cl)CC1	-11	-3	-22	-2%	-2.2	1.9	4.2
Cc1cc(NC(=O)CSc2nc3cc(Cl)ccc3c(=O)n2CC(C)C)no1	.	-19	2	-6%	.	-1.4	1.6
CCCNC(=O)[C@H]1N2C(=O)c3c(ccc(OC)c3OC)C2SC1(C)C (stereo not given in full)	-14	-10	-6	3%	-0.4	-6.4	0.0
COc1ccc(OCC(=O)N/N=C/c2cccn2-c2cccc(C(=O)O)c2)cc1	1	.	.	14%	-13	.	.
O=C(Nc1cc(F)cc(F)c1)c1sc(Cl)nc1-c1ccccc1	6	-18	3	-376%	3.6	1.4	2.5
O=C(NCc1ccccc1)C1CCN(c2nc(-c3ccccc3)nc3c2CCC3)CC1	0	-5	-1	-11%	0.2	3.2	-4.7
CC(C)(C)C1CCc2c(sc(NC(=O)C3CCCO3)c2C(N)=O)C1 (stereo not given)	-6	0	5	-2%	3.2	0.4	0.8
CC(OC(=O)/C(C#N)=C/c1ccco1)C(=O)N(C)c1ccccc1 (stereo not given)	-1	-1	.	8%	9.6	.	-9.0
Cc1ccc2[nH]c(C)cc(=S)c2c1	-9	.	.	-36%	-4.2	.	.
Cc1cc(CN(C)C(=O)CC2C(=O)NCCN2Cc2c(F)cccc2Cl)on1 (stereo not given)	-6	-16	-5	0%	-0.9	6.9	-2.1
Brc1ccc(C2=CC(c3cccs3)n3ncnc3N2)cc1 (stereo not given)	-4	23	-4	-6%	-109	-4.2	59*
Cc1ccc(C)c2nc(SCC(=O)Nc3ccc4c(c3)OCO4)c(C#N)cc12	-4	-2	2	?	-0.6	?	-3.3
COc1ccc(NC(=O)COC(=O)c2ccc(S(=O)(=O)N3CCCC3)cc2)cc1OC	-4	-2	.	-1%	1.5	.	2.8
CC(NC(=O)Cc1cccs1)c1ccncc1 (stereo not given)	3	-11	-2	5%	4.6	0.7	-2.5
Cn1c(COc2ccccc2)nnc1SCCC(=O)Nc1ccccc1	-4	-2	-12	0%	-0.3	5.6	0.5
O=C(CSc1ncnc2nc[nH]c12)Nc1ccccc1C(F)(F)F	-8	-2	-2	-4%	3.8	3.5	4.7
NS(=O)(=O)c1ccc(CNC(=O)CCC2CCCCC2)cc1	-21	-3	2	26%	-2.8	1.1	-3.7
Cc1cc(C)nc(CCNC(=O)c2cc(COc3ccc(F)cc3F)on2)n1	-2	-6	-5	7%	1.1	-2.7	1.5
Cc1cc(C)c(S(=O)(=O)N2CCN(C(=O)C3CCCO3)CC2)c(C)c1 (stereo not given)	-8	-2	.	-4%	-1.7	.	-2.6
Nc1nnc(-c2ccccc2)s1	3	-1	1	?	0.6	-4.8	0.6
O=C(C1CCC1)N1CCc2cc(S(=O)(=O)NCCN3CCN(c4ccccc4F)CC3)ccc21	-13	2	1	7%	4.2	-2.2	-1.0
Cc1ccc(C)c(NC(=O)COC(=O)COc2cccc3c2OC(C)(C)C3)c1	1	0	0	.	-1.6	.	0.2
CN(C)N=Nc1ccc(S(=O)(=O)NC(=O)Cc2ccccc2)cc1	-3	-11	36	.	2.6	1.5	7.7
COc1cccc(N2CC(C(=O)NNC(=O)c3ccc(Cl)cc3)CC2=O)c1 (stereo not given)	1	5	2	.	6.1	4.8	-7.9
Fc1cccc(CCN2CCNC[C@H]2Cc2cccc3ccccc23)c1	7	-7	-4	.	4.7	3.0	2.2
CCCCN(CC)C(=O)CN1C(=O)c2ccccc2C1=O	-11	10	3	-2%	0.6	3.3	0.5
Cc1cc(C(=O)Nc2ccc(Cl)cc2)c(C)n1-c1ccccc1	-2	-5	1	-3%	0.6	1.9	-13
Cc1ccc(C(=O)N2CCN(c3ccc(NC(=O)Cc4ccccc4)cc3)CC2)cc1	2	0	.	.	-2.8	.	1.2
COc1ccc(OC)c(C(=O)c2ccccc2)c1	-7	-13	-7	-9%	0.3	6.2	1.5
COc1cc(OC)cc(-c2nnc(SCc3c(F)cccc3Cl)o2)c1	-12	1	-1	-2%	-2.4	0.3	-0.3
CCc1ccc(C)c(OC(=O)c2cncc(Br)c2)c1	3	22	9	.	-0.5	0.0	4.4
Cc1nc(NS(=O)(=O)c2ccccc2)sc1NC(=O)OC(C)C	2	36	2	0%	4.0	3.0	-0.3
CC(C)CC(=O)Nc1ccc2c(c1)nc(CCN1CCCCC1)n2C	0	.	9	-3%	0.2	0.2	3.4
Cc1ccc(-n2ncc(C(=O)NC3CC3)c2C2CCN(C(=O)OC(C)(C)C)CC2)cc1	3	-4	-1	-3%	3.6	5.3	0.2
CCNc1ccc(C(=O)OCC(=O)NCc2ccccc2Cl)cc1[N+](=O)[O-]	-6	-6	1	.	8.6	-0.9	0.6
COc1ccc(C2=CC3=CC(=O)C(C)(O)C(=O)C3=CO2)cc1 (stereo not given)	.	.	2	.	.	-10	-4.2
Cc1ccc(S(=O)(=O)N2CCCCC2)cc1C(=O)OC1CCCCC1=O (stereo not given)	4	-2	-3	-2%	1.9	-2.6	-1.3
CCSCc1nnc(SCC(=O)c2ccc(OC)cc2)n1C	-3	22	0	27%	-2.1	-2.3	1.2
O=C(NC(=S)Nc1cc(C(F)(F)F)ccc1Cl)c1ccccc1	1	0	12	-3%	1.0	1.4	-2.3
O=C(OCn1ncc(Cl)c(Cl)c1=O)c1ccc(F)cc1	.	6	107*	-2%	.	0.4	-2.3

Single records (already shown). Screens in order: B2AR ag | ALR H2O2 inh | Calb FLC | Vif TR-FRET | HNF4A DNA FP | RanGTP-Impb inh | LANA-H2A inh
Cc1ccc(C(=O)N2CCN(c3ccc(NC(=O)Cc4ccccc4)cc3)CC2)cc1 as listed: 2 | 0 | . | . | -2.8 | . | 1.2
Cc1nc(NS(=O)(=O)c2ccccc2)sc1NC(=O)OC(C)C as listed: 2 | 36 | 2 | 0% | 4.0 | 3.0 | -0.3
O=C(OCn1ncc(Cl)c(Cl)c1=O)c1ccc(F)cc1 as listed: . | 6 | 107* | -2% | . | 0.4 | -2.3

Next part
SMILES	B2AR ag	ALR H2O2 inh	Calb FLC	Vif TR-FRET	HNF4A DNA FP	RanGTP-Impb inh	LANA-H2A inh
Cc1ccc(CNC(=O)C2CCCN(S(=O)(=O)N3CC(C)CC(C)C3)C2)cc1 (stereo not given)	-13	1	0	-9%	0.0	-2.3	3.4
COc1ccc(NC(=S)NCCCn2ccnc2)cc1	0	4	0	1%	0.9	0.4	-4.0
O=c1cc(N2CCc3ccccc32)[nH]c(=O)n1-c1ccc(Br)cc1	-2	.	-7	24%	-2.0	-7.1	.
Cc1oc2c(CN(C)C)c(O)ccc2c(=O)c1-c1ccc2ccccc2n1	5	4	-1	5%	2.0	-4.5	-1.4
COc1ccc(N2C(=O)CSC2c2ccncc2)cc1 (stereo not given)	1	99*	45	0%	7.7	3.7	2.8
CN1CCN(C(=O)/C(=C/c2cn(C)c3ccccc23)NC(=O)c2ccccc2)CC1	2	46	2	-4%	0.4	3.1	-1.6
O=C(CSc1nnc(-c2cccs2)o1)c1cccs1	-21	-2	-3	-37%	-0.8	0.9	0.4
CC(O)CC(=O)NOCc1ccccc1 (stereo not given)	-2	.	.	2%	-2.4	.	.
CC1(C)Cc2ccccc2C(CSc2ccccc2C(=O)O)=N1	8	2	-29	.	-4.0	2.7	-2.5
O=C(COC(=O)c1ccccc1O)NCC1COc2ccccc2O1 (stereo not given)	-1	1	.	-3%	-0.8	.	0.7
COc1cc(NS(=O)(=O)c2ccc(NC(=S)NC(=O)C3CCCC3)cc2)nc(OC)n1	-8	13	8	7%&30%	-2.0	-2.1	-0.3
COCCNC(=O)CSc1ccccc1C(=O)O	-2	-5	-10	10%	-3.9	1.9	1.5
CN(CCNC(=O)c1cccc(N2CCCC2=O)c1)Cc1ccccc1	0	-3	-1	2%	4.1	1.0	0.1
Cc1c(C(=O)N(Cc2ccccc2)Cc2cccs2)cnn1-c1ccc(Cl)cc1	-7	-1	9	8%	2.5	0.7	6.6
COCCCNC(=O)C1=CCN(S(=O)(=O)c2ccc(OC)cc2)CC1	2	0	3	.	-5.3	2.1	6.2
CCOc1ccc(/C=N/NC(=O)c2nnn(-c3nonc3N)c2-c2ccc(OCC)cc2)cc1	10	-1	13	-1%	-0.1	1.1	8.5
CCOC(=O)c1cc(NC(=O)CC(C)(C)CC(=O)O)ccc1N1CCCCC1	4	0	13	-2%	2.0	3.2	2.4
O=C(O)c1cccc(S(=O)(=O)NCC2CCCO2)c1 (stereo not given)	11	.	-1	-5%	-0.1	?	-4.1
C=CCNS(=O)(=O)c1ccc2nsnc2c1	-3	-18	2	3%	2.3	8.0	-0.1
CCn1ccnc1CN(C)C(=O)c1cc(COc2ccc(-n3cncn3)cc2)on1	-6	-3	0	.	0.1	0.1	-0.7
c1ccc(SCc2nc3ccccc3[nH]2)cc1	-11	25	-18	77%	3.9	2.9	-0.6
Cc1cccc(NC(=O)c2cc([N+](=O)[O-])ccc2N2CCCCC2)n1	-5	7	48	-13%	-3.9	-1.9	-2.8
O=C(C[C@H]1C/C=C/CC[C@H](Cc2ccc(F)cc2)C(=O)O[C@H](c2ccccc2)CNC1=O)NCCO	7	1	.	3%	2.4	.	.
C=CCc1cccc(Cl)c1OCCON1C(=O)CCC1=O	-2	-8	-21	1%	2.3	-1.1	3.9
Cc1cccc(NC(=O)Cn2nnc(-c3cccs3)n2)c1C	-2	-5	-17	?	0.0	-1.7	-0.8
CCOC(=O)c1nnc2cc(-c3ccccc3)nn2c1C	1	4	.	1%	20	.	-6.2
COC(=O)c1ccc(C(=O)OC)c(NC(=O)CSCc2ccc(Cl)cc2)c1	-10	-4	35	4%	0.2	2.6	-2.2
O=S(=O)(NCc1ccccc1)c1ccc(S(=O)(=O)N(Cc2cccs2)CC2CCCO2)cc1 (stereo not given)	6	4	15	5%	-5.5	-0.2	1.2
COc1ccccc1N1CCN(C(=O)c2cccc(N3C(=O)NC4CC3(C)Oc3ccccc34)c2)CC1 (stereo not given)	7	0	-2	2%	0.1	0.0	1.3
O=C(O)Cn1c(CCS(=O)(=O)c2ccc(Br)cc2)nc2ccccc21	-4	-10	0	29%	-3.9	0.4	4.1
Cc1cccc(CSCc2ccc(C(=O)NC(C)C)o2)c1	-6	.	6	-2%	-0.2	-1.9	-0.8
CCn1cc(-c2cc(C(=O)O)c3ccccc3n2)c(C)n1	-2	-6	-5	-4%	1.0	-1.1	-3.2
CCC(=O)Nc1cccc(-c2cn3ccsc3n2)c1	-8	6	-6	-4%	-2.6	-2.0	-0.6
Cc1cc(C(=O)c2ccc(C(C)(C)C)cc2)c(NC(=O)CCl)s1	96*	6	1	?	-1.0	3.5	-3.4
Cc1ccc(C)c(OCC(O)CN2CCC(Cc3ccccc3)CC2)c1 (stereo not given)	7	-6	11	.	-3.0	-0.5	3.7
CCCn1nc(CC(=O)OCC)c2ccccc2c1=O	12	-4	0	-11%	-0.2	5.6	0.1
